# TRPML1 blocker: blocks the human TRPML1 channel | Q9GZU1 | TRPML1-inducible cells, Ca2+ dye fluorescence, FDSS; stronger effect = lower value; inhibition of EC80 agonist-evoked calcium signal | activity change, negative = inhibition, % (concentration not given with the values) | actives 0.02% (n = 390,000); in the data active means activity change below about -50%; inconclusive means about -30% to -50%; inactive means above about -30%;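 note: stimulus is agonist 54-4 at its EC80 concentration; % is set by controls: 0 for no effect and ±100 for the full control effect; compound concentration not given in the record; the text of the record puts the active cut at -80%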
# Target sequence (Q9GZU1 whole entry, looked up): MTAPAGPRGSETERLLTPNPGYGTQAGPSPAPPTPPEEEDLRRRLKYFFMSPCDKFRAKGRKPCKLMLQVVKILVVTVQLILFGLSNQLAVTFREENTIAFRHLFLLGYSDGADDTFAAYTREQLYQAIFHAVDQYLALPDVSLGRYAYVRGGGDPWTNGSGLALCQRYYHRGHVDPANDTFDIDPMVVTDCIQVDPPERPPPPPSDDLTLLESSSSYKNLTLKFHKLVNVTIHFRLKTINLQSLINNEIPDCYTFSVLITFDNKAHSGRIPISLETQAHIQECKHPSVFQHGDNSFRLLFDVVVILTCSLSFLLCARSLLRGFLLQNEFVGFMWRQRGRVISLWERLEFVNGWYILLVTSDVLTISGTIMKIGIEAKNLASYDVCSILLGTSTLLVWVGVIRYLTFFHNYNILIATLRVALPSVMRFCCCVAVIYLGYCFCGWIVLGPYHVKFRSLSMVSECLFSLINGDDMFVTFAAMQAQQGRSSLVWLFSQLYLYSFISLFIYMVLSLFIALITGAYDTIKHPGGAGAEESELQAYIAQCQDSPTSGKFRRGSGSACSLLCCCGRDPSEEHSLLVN
#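 Calcium fluorescence in TRPML1-DL cells induced overnight with Tet: a 110 s read after compound pin addition, then a 110 s antagonist read after challenge with 54-4 at 4 uM final (EC80).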
# gsp agonist: gsp mutant agonism; gsp mutant cells, cAMP HTRF, 30 min; control for the full effect not named in the record; Potency, µM (doses to about 76.9 µM), for inactives: top-dose activation (cAMP increase), usual class: activators; actives 0.13% (n = 340,000); active = well fitted activation curve with a large enough effect; inconclusive = small, poorly fitted or top-dose-only effect, or another doubt; inactive = no such curve, though single readings can be large or run the other way; cell line not stated here;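 note: phosphodiesterase inhibitor Ro 20-1724 added with compounds to block cAMP breakdown; potency is the fitted concentration of half-maximal effect; nearly all actives have a fitted effect of over 60% in size; about a fifth of the inactives were tested at one dose only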
#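 Cells stably selected in G418 were plated at 2000/well, grown 16-24 hr, then given compounds in DMSO with the PDE inhibitor […] (300 uM solution added) for 30 min at 37C; cAMP was read by HTRF.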
# Sfp PPTase inh: Sfp phosphopantetheinyl transferase inhibition; Q9F4F7; Biochemical Sfp PPTase activity, qHTS; Potency, µM, for inactives: max response, negative = inhibition, actives largely listed as inhibitors; actives 3.5% (n = 310,000); AID 1490; active = well fitted inhibition curve with a large enough effect; inconclusive = small, poorly fitted or top-dose-only effect, or another doubt; inactive = no such curve, though single readings can be large or run the other way;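 note: the enzyme is Sfp with the accession as filed and its product quenches rhodamine fluorescence; potency is the fitted concentration of half-maximal effect; 0% = enzyme reaction without inhibitor and -100% = no enzyme wells; top concentration of the series not given in the record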
#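 Compounds were incubated with enzyme (final 15 nM) for 15 min at room temperature before substrate addition started the reaction. Fluorescence at 525 nm excitation, 598 nm emission was recorded immediately and after 30 minutes.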
# ClpP mod: qHTS Assay for Activators of ClpP; AID 651965, 2013; purified B. subtilis ClpP, FRET peptide cleavage, 20 min; Potency, µM (doses to about 57.5 µM), inactives show at the highest dose activity change, negative = active; actives 1.9% (n = 340,000); ATP-dependent Clp protease proteolytic subunit (Bacillus subtilis (strain 168)), P80244; active = well fitted falling curve with a large enough effect; inconclusive = small, poorly fitted or top-dose-only effect; inactive = no such curve, though single readings can be large or run the other way; note: potency is the fitted concentration of half-maximal effect; the source files actives as falling curves though it sought activators and does not explain the sign; nearly all actives have a fitted effect of over 65% in size; many hits overshoot -100%
# Target sequence (P80244 whole entry, looked up): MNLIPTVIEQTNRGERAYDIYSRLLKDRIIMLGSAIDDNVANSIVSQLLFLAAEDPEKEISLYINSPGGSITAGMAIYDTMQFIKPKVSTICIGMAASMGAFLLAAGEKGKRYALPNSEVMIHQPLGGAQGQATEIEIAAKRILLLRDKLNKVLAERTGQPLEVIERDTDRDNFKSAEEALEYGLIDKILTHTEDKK
#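 Buffer: 100 mM Tris/HCl pH8, 100 mM KCl, 0.05% low protease BSA, 2.5% glycerol, 0.01% Tween-20. ClpP 10 microg/mL final; 20 min RT; delta FRET normalized to ADEP and DMSO controls.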
# Menin-MLL FL inh: inhibitors of human menin-MLL interaction, wild-type MLL peptide; Fluorescence polarization, fluorescein-MLL peptide displacement from menin; FP activity change, % at 61.4 µM; 290,000 tested, under 10 active; AID 1766; inconclusive = falling polarisation curve, or a change in total fluorescence; inactive = total fluorescence flat and polarisation flat or rising; no compound was filed as active; the % refers to the polarisation; negative = inhibition;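 note: % of control where 0% means no effect; inhibitors lower the polarisation; unlabelled MLL peptide was the positive control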
# gsp antag: antagonizes gsp, the McCune-Albright syndrome mutation; actives 0.4% (n = 340,000); Potency, µM (top dose mostly 76.9 µM), for the others: at the top dose activity change, negative = inhibition, most hits filed as inhibitors; AID 624288; gsp-mutant cells, cAMP HTRF, 30 min; control for the full effect not named in the record; active = falling curve of any shape with a large fitted effect; inconclusive = falling curve, mostly with a smaller effect; inactive = flat or rising curve; cell line not stated here;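 note: intracellular cAMP measured with PDE inhibitor Ro 20-1724 present during compound exposure; potency is the fitted concentration of half-maximal effect; % is set by controls: 0 for no effect and ±100 for the full control effect; nearly all actives have a fitted effect of over 65% in size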
#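 G418-selected cells were plated in DMEM/10% FBS for 16-24 h at 37C, then treated with compounds plus the PDE inhibitor […] (300 uM solution added) for 30 min at 37C. Intracellular cAMP was measured by HTRF after 30 min lysis at room temperature.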
# TRPV1 PAM: human TRPV1 potentiation. potentiation, % at 8.33 µM. Q8NER1. actives 0.02% (n = 320,000). TRPV1-expressing cells, Fluo-8 calcium influx, capsaicin EC20 potentiation; host cell line not named in the record; control for the full effect not named in the record. AID 540277; active means potentiation above 80%; inconclusive means 30% to 80%; inactive means below 30%; note: 0% is about no effect
#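 Fluo-8 calcium influx in TRPV1-expressing cells, kinetic read (ex 480/em 520 nm). Compound added and read 3 min for agonist activity, followed by capsaicin at EC20 final and 2 min further read for enhancement.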
# An asterisk follows results filed as active; ? = inconclusive; / = not tested or not shown; [ ] = another dose, or the depositor's remark. Not a hit list, and some 4.9% of all compounds hit somewhere here.
1: COc1ccccc1NC(=O)CSc1nnc(Cn2c(=O)sc3ccccc32)n1C
2: COc1ccccc1CCc1nnc(N)s1
3: Cc1ccc(NC(=O)c2cc([N+](=O)[O-])ccc2NCc2cccnc2)cc1Cl
4: Cc1cccc(NC2=C/C(=N/S(=O)(=O)c3cccs3)c3ccccc3C2=O)c1
5: COc1ccc(C(=O)Nc2ncccc2C)cc1S(=O)(=O)N1CCCc2ccccc21
6: Cc1nc2c(C)cccn2c(=O)c1NC(=O)c1cccc2ccccc12
7: O=C(Cn1ccc2ccccc2c1=O)NCCC(=O)N1CCN(c2cccc(C(F)(F)F)c2)CC1
8: Cc1ccccc1Oc1ccc2c(c1)[C@@H]1C[C@H](N(C)C(=O)NC3CCCCC3)[C@H]([C@H](C)O)C(=O)N1CC2
9: CC(C)OC(=O)c1cccnc1N1CCN(c2cccc(Cl)c2)CC1
10: CCc1ccc(CNC(=O)C2CCN(S(=O)(=O)N3CCCC3)CC2)cc1
compound no.	1	2	3	4	5	6	7	8	9	10
Sfp PPTase inh	-2.0%	2.3%	9.4%	?	/	/	13.1%	/	-29.5%	6.6%
ClpP mod	-1.8%	-0.3%	-4.5%	-1.2%	0.7%	-1.5%	-10.1%	-3.2%	-4.2%	-0.9%
TRPML1 blocker	6.4	9.8	19.7	40.4	-4.7	-19.0	-3.7	4.8	-5.9	6.3
gsp agonist	-7.9%	-11.0%	14.6%	24.4%	-19.2%	-5.1%[15.4 µM]	-26.4%	/	-16.8%	?
gsp antag	1.5%	-15.9%	-21.1%	13.9%	-11.8%	6.0%	-10.5%	-15.7%	-15.7%	2.3%
Menin-MLL FL inh	0.6	-0.5	4.5	/	/	/	-6.2	/	-0.1	/
TRPV1 PAM	?	10.7	1.7	-5.9	-8.5	11.9	-10.1	/	-17.3	-0.2

11: CCNc1nc(NC(C)C)nc(OCCNS(=O)(=O)c2cc(C)ccc2C)n1
12: CCCn1c(NC(=O)C2CCN(S(=O)(=O)c3cccs3)CC2)nc2ccccc21
13: O=C1C=CN(C(=O)Oc2ccccc2)CC1
14: C=C1C2(C(=O)NCc3ccco3)CCC(C2)C1(C)C (stereo not given)
15: CC(NC(=O)OCc1ccccc1)C(=O)Oc1cc2oc(=O)cc(-c3ccccc3)c2cc1Cl (stereo not given)
16: CN(CC(=O)Nc1ccccc1F)CC(=O)Nc1ccccc1Br
17: CCN(Cc1ccccc1)C(=O)CSc1nncn1C
18: Cc1ccc(S(=O)(=O)N2CCCC2C(=O)NCc2ccccc2F)cc1 (stereo not given)
19: Cc1nc(NC(=O)c2ccc([N+](=O)[O-])cc2Cl)sc1C(=O)N(C)C
20: CSCCC1NC(=O)N(CC(=O)Nc2ccc(Cl)c(S(=O)(=O)N3CCOCC3)c2)C1=O (stereo not given)
compound no.	11	12	13	14	15	16	17	18	19	20
Sfp PPTase inh	0.5%	11.8%	8.4%	7.8%	20.5%	8.9%	8.2%	8.7%	39.8µM*	/
ClpP mod	-0.1%	0.2%	-1.7%	1.2%	25.1µM*	-6.9%	/	-0.5%	0.4%	/
TRPML1 blocker	-8.2	0.5	3.8	6.6	6.8	37.7	-8.3	-14.4	-5.4	-29.1
gsp agonist	-44.6%[inhibitor]	0.0%	-2.4%	-1.6%	-21.0%	-5.1%[15.4 µM]	-20.6%	-11.9%	9.7%	?
gsp antag	-4.6%	-10.9%	12.6%	11.4%	4.3%	9.3%	8.0%	-1.2%	12.1%	-1.4%
Menin-MLL FL inh	7.0	-0.5	7.1	-2.0	6.1	4.6	6.0	1.7	3.1	/
TRPV1 PAM	-2.7	-9.6	-16.7	-9.0	-5.3	-6.4	0.2	-0.4	11.6	/

# An excerpt of these results, bar-delimited.
no. | smiles | Sfp PPTase inh | ClpP mod | TRPML1 blocker | gsp agonist | gsp antag | Menin-MLL FL inh | TRPV1 PAM
15 | CC(NC(=O)OCc1ccccc1)C(=O)Oc1cc2oc(=O)cc(-c3ccccc3)c2cc1Cl (stereo not given) | 20.5% | 25.1µM* | 6.8 | -21.0% | 4.3% | 6.1 | -5.3
16 | CN(CC(=O)Nc1ccccc1F)CC(=O)Nc1ccccc1Br | 8.9% | -6.9% | 37.7 | -5.1%[15.4 µM] | 9.3% | 4.6 | -6.4

# (further entries)
21: O=C(NC1CCCCC1)C(c1ccccc1)N(C(=O)Cc1ccsc1)c1ccccc1 (stereo not given)
22: NS(=O)(=O)c1ccc(CCNC(=O)CN2CCN(c3ccccc3O)CC2)cc1
23: Cc1csc(=O)n1CC(=O)OCC(=O)Nc1ccc(Cl)cc1F
24: CCN(CC)S(=O)(=O)c1ccc2[nH]cc(C(=O)NCCCN3CCCCC3C)c(=O)c2c1 (stereo not given)
25: COc1ccc(NC(=O)NCc2cccnc2)cc1OC
26: Cc1c(-c2ccccn2)c(=O)[nH]n1-c1ccc(F)cc1
27: CCOC(=O)N1CCN(C(=O)CCN2C(=O)COc3ccc(C)cc32)CC1
28: O=c1c(Cc2c(F)cccc2Cl)c(O)ccn1CCCn1ccnc1
29: Cc1nn(Cc2ccc([N+](=O)[O-])cc2)c(=O)n1-c1ccc(Cl)cc1
30: CCOC(=O)c1c(N)nn(C(=O)c2ccccc2)c1-c1ccccc1
compound no.	21	22	23	24	25	26	27	28	29	30
Sfp PPTase inh	-6.1%	11.4%	/	13.1%	10.4%	21.7%	13.2%	5.7%	14.9%	-8.6%
ClpP mod	-1.3%	-1.1%	-5.8%	22.4µM*	-1.7%	/	-3.0%	-1.5%	/	-1.6%
TRPML1 blocker	-5.4	-6.7	-4.1	7.2	-4.5	-8.1	5.3	6.2	1.2	6.3
gsp agonist	9.4%	4.6%	?	23.7%	6.8%	-29.5%	0.3%	-9.6%	-3.3%[15.4 µM]	?
gsp antag	1.7%	1.4%	-4.2%	3.5%	7.3%	-18.5%	3.6%	8.0%	-24.3%	-3.0%
Menin-MLL FL inh	3.5	5.9	/	1.4	4.9	1.8	6.3	2.7	0.0	-0.7
TRPV1 PAM	-16.4	7.0	1.6	-8.4	6.4	-1.7	16.9	14.9	-13.1	-2.0

# Three compounds from above, ordered by the value under TRPML1 blocker, rising:
no.	Compound	TRPML1 blocker
21	O=C(NC1CCCCC1)C(c1ccccc1)N(C(=O)Cc1ccsc1)c1ccccc1 (stereo not given)	-5.4
23	Cc1csc(=O)n1CC(=O)OCC(=O)Nc1ccc(Cl)cc1F	-4.1
30	CCOC(=O)c1c(N)nn(C(=O)c2ccccc2)c1-c1ccccc1	6.3

# Entries above marked active in Sfp PPTase inh.
cpd	mol	Sfp PPTase inh	TRPML1 blocker	gsp agonist	gsp antag	Menin-MLL FL inh
19	Cc1nc(NC(=O)c2ccc([N+](=O)[O-])cc2Cl)sc1C(=O)N(C)C	39.8µM*	-5.4	9.7%	12.1%	3.1

# Following part.
31: Cc1cc(C)cc(NC(=O)CC2NCCNC2=O)c1 (stereo not given)
32: NC(=O)c1ccsc1NC(=O)C1CCCN1S(=O)(=O)c1ccc(Cl)cc1 (stereo not given)
33: C[C@H]1COC(=O)[C@H](CC(=O)OC(C)(C)C)C/C=C\C[C@H](CC(=O)N(CCO)Cc2ccccc2)C(=O)N1
34: COc1cc(C(=O)NC2CCCc3c2cnn3-c2ccccc2F)cc(OC)c1OC (stereo not given)
35: CC(=O)NCCCc1nc2ccccc2n1Cc1ccc(C)cc1
36: CS(=O)(=O)n1nc(C(=O)N2CCOCC2)nc1N
37: CC(=O)C(=Cc1ccc(O)cc1)C(C)=O
38: C/C(=N\NC(=O)c1ccc(NS(=O)(=O)c2cccs2)cc1)c1ccncc1
39: Cc1ccccc1OCC(=O)NCCS(=O)(=O)N1CCN(c2ccc(F)cc2)CC1
40: Cn1c(CN2CCCCC2)c(C#N)c2ccccc21
compound no.	31	32	33	34	35	36	37	38	39	40
Sfp PPTase inh	17.1%	-7.5%	/	8.9%	2.2%	5.6%	-12.6%	-17.9%	/	10.1%
ClpP mod	-0.9%	-0.9%	1.6%	0.7%	0.5%	1.3%	0.6%	/	?	-6.3%
TRPML1 blocker	-20.7	-20.7	-15.3	7.2	9.0	-5.2	-7.1	-3.5	6.0	6.6
gsp agonist	-21.7%	-4.0%	-54.7%[inhibitor]	-32.4%[inhibitor]	-7.7%	1.7%	-3.7%	5.4%[15.4 µM]	-26.1%	4.7%
gsp antag	8.8%	?	10.1%	-19.1%	0.3%	2.2%	1.4%	-10.9%	-0.9%	-30.2%
Menin-MLL FL inh	1.8	-0.5	/	/	-2.6	2.6	5.3	-3.3	/	-1.4
TRPV1 PAM	2.5	-7.5	/	2.6	-3.5	16.6	?	21.5	3.2	-8.9

# Filtered by structure: the compounds so far containing an NH in an aromatic ring
24: CCN(CC)S(=O)(=O)c1ccc2[nH]cc(C(=O)NCCCN3CCCCC3C)c(=O)c2c1 (stereo not given)
26: Cc1c(-c2ccccn2)c(=O)[nH]n1-c1ccc(F)cc1
compound no.	24	26
Sfp PPTase inh	13.1%	21.7%
ClpP mod	22.4µM*	/
TRPML1 blocker	7.2	-8.1
gsp agonist	23.7%	-29.5%
gsp antag	3.5%	-18.5%
Menin-MLL FL inh	1.4	1.8
TRPV1 PAM	-8.4	-1.7

# (cont.)
41: Cc1cc(=O)[nH]c(N/N=C/c2ccc(O)c(O)c2)n1
42: Cc1cc(Cl)c(S(=O)(=O)N2CCCC2)cc1OCC(=O)NC1CCCCC1
43: O=C(c1ccc(N2CCCCC2)c([N+](=O)[O-])c1)N1CCOCC1
44: CC12CCC(=O)N1C(C(=O)Nc1ccc(SC(F)F)cc1)CS2 (stereo not given)
45: CCOC(=O)C1CCCN(C(=O)CNC(=O)c2nn(-c3ccc(OC)c(Cl)c3)c(=O)c3ccccc23)C1 (stereo not given)
compound no.	41	42	43	44	45
Sfp PPTase inh	?	11.4%	11.6%	/	25.4%
ClpP mod	/	1.2%	-5.3%	/	/
TRPML1 blocker	2.0	4.7	5.1	9.7	-5.6
gsp agonist	0.8%[15.4 µM]	-32.6%	-12.7%	-6.0%[15.4 µM]	-5.1%
gsp antag	-8.7%	-29.6%	3.9%	3.0%	-19.3%
Menin-MLL FL inh	1.9	2.0	1.4	/	2.3
TRPV1 PAM	10.8	-4.4	-26.2	10.7	-1.2

# Screening data deposited in PubChem BioAssay by National Center for Advancing Translational Sciences (NCATS).
